Screens from PubChem.
HNF4A DNA FP – change in binding of human HNF4 alpha to DNA; P41235; HNF4a-FITC DNA binding, fluorescence polarization, 1 h; activity change, % at 10 µM; 360,000 compounds, 0.3% hits; AID 1224865; in the data active = activity change above about 30%, passing the limit was not always enough;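 also: controls were the assay level and a saturating level of protein; the project sought stronger binding though the title names inhibitors; some compounds called inactive have numbers as strong as hits; positive values seem to mean higher polarization but the record does not say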
Ecoli growth – blocks Escherichia coli growth | 330,000 compounds, 0.21% hits | OD600, 23 h; stronger effect = lower value | OD600 absorbance (no concentration beside the values);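 active = OD600 absorbance below the run mean of sample wells minus 3.6 SD, in any replicate, cut at about 0.56 in these data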;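 also: stock transfer was 300 nL into about 60 µL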
ALR H2O2 inh – inhibitors of human sulfhydryl oxidase ALR | 290,000 compounds, 3.8% hits | AID 485317 | inhibition, % (test concentration not listed) | P55789 | purified ALR, DTT oxidation, H2O2 HRP-luminol luminescence;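 active = mean and each replicate at 75% or more; inconclusive = only one of the two met; inactive = neither met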;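 also: stock transfer was 7.5 nL into about 7.5 µL; 0% = neutral wells and 100% = wells with inactivated enzyme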
Target sequence (P55789 whole entry, looked up): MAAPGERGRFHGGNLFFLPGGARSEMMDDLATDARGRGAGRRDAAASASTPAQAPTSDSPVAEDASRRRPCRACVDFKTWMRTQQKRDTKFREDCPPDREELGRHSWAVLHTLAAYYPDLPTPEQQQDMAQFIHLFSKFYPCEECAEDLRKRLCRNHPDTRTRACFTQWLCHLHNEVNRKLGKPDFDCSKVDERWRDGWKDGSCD
Vif A3G – HIV-1 Vif–A3G interaction blockers – biochemical, TR-FRET, GST-Vif 1-94, biotin-A3G peptide, dose response retest, primary screen (AID 1117319). inhibition, %, or IC50 in µM where a hit was titrated. 260,000 compounds, 0.57% hits. TR-FRET GST-Vif / biotin-A3G peptide binding; higher % means a stronger effect; test concentration not given here; strong numbers were not always called active;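 active = above the screen mean plus three standard deviations and confirmed in dose response; inconclusive = results disagree or hit not tested in dose response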;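 also: Vif residues 1-94 fused to GST binding biotinylated APOBEC3G peptide 110-148; 0% = full assay without inhibitor and 100% = GST in place of GST-Vif; retest series ran down from 100 µM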
AF4-AF9 inh – inhibitors of human MLL-AF4/AF9 interaction. P42568. AlphaScreen, biotin-AF4 peptide binding to FLAG-AF9. inhibition, % at 10 µM. 350,000 compounds, 0.47% hits. AID 651704;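 active = every replicate reaching a set inhibition limit, whatever the replicate mean, cut at about 25% in these data; inconclusive = mean inhibition reaches that limit but some replicates miss it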;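 also: 0% = plate neutral control median and 100% = total signal loss; the record names both 10 and 1 µM as test concentration; the first replicate is given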
Target sequence (P42568 whole entry, looked up): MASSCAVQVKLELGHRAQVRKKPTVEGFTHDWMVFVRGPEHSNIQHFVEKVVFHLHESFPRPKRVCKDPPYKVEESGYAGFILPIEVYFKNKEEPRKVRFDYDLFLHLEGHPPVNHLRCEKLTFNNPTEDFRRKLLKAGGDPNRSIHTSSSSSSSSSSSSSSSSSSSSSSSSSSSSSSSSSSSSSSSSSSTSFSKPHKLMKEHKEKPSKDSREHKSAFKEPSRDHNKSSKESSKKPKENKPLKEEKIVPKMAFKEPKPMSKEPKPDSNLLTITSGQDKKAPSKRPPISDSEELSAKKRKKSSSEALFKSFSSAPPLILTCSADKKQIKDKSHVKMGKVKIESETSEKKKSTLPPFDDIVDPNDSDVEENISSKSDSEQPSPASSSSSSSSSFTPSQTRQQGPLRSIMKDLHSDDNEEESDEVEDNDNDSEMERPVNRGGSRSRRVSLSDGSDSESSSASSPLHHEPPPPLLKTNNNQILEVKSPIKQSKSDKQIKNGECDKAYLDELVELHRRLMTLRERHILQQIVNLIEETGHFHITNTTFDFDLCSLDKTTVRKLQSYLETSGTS
FGF22 binding – FGF22 (human) thermal shift binding | recombinant FGF22 thermal shift, SYPRO orange fluorescence; percent of sucrose octasulfate shift, DMSO zero | 340,000 compounds, 1.5% hits | Q9HCT0 | AID 651658 | calls only at 9.99 µM;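 active = melting point raised past a set limit in the mean and every replicate; inconclusive = no clear call; three in four hits are not shown here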
Target sequence (Q9HCT0 whole entry, looked up): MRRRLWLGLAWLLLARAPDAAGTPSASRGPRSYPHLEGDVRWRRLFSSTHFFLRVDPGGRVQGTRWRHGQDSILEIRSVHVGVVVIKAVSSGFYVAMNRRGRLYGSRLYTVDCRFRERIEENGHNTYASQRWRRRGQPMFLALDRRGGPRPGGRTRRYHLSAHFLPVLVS
rRNA inh HTS – inhibitors of bacterial rRNA selective over humanized ribosomes. E. coli WT GFP vs humanized-ribosome RFP mutants, fluorescence, 24 h; stronger effect = lower value; DMSO median 0, no signal -100. GFP signal change (wild-type ribosome), % (concentration not given with the values). 350,000 compounds, 1.6% hits. AID 720706;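 active = significant combined selectivity score with lowered wild-type GFP, culture density cut under 30%, mutant RFP and density less affected; inactive = any of these conditions unmet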; also: one replicate is shown; some compounds called inactive have numbers as strong as hits
rRNA inh HTS OD600 – recorded beside rRNA inh HTS, whose call it bears; OD600 change, %; measured here: OD600 growth;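 optical density of the mix in the first replicate; 0 = DMSO median and -100 = no signal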
rRNA inh HTS RFP – second read-out of rRNA inh HTS, no call of its own (marks repeat the call); RFP signal change, %; measured here: RFP humanized mutant strains;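 first replicate; 0 = DMSO median and -100 = no signal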
* hit, by the source's call; i = inactive; ? = inconclusive; · = not tested or not shown; & = joins results of further samples. An excerpt; count on the stated rates, not on these rows.

SMILES	HNF4A DNA FP	Ecoli growth	ALR H2O2 inh	Vif A3G	AF4-AF9 inh	FGF22 binding	rRNA inh HTS	rRNA inh HTS OD600	rRNA inh HTS RFP
CN(CC(=O)Nc1ccccc1Br)CC(=O)Nc1ccccc1-c1ccccc1	1.6	0.652	·	-7.8%	-1.7	i	-21.5	-48.6	-2.0
CC1OC(Nc2ccc(N=Nc3ccccc3)cc2)C(O)C(O)C1O (centres undefined)	2.9	0.731	-3.4	-4.0%	10.9	i	10.9	6.4	6.7
S=C(Nc1ccc(Cl)cc1Cl)Nc1ccccc1Oc1ccccc1	-2.5	·	-15.3	-6.2%	·	·	·	·	·
CCCCNC(=O)c1cc(-c2ccccc2)sc1N	14.8	·	·	·	-0.7	i	-0.7	-2.0	3.6
Cc1ccc(CC(=O)Nc2cccc(C(=O)Nc3c(C)n(C)n(-c4ccccc4)c3=O)c2)cc1C	-1.5	·	·	2.4%	0.0	i	-2.4	-13.2	-4.9
Clc1ccc(-c2[nH]ncc2N=Nc2ccccc2)cc1	0.7	·	1.3	-3.0%	4.1	i	-10.3	-8.8	-1.1
C=CCn1c(=O)/c(=C/c2ccc(Cl)cc2)s/c1=C(/C#N)c1nnc2n1CCCCC2	3.6	·	-4.0	?	·	·	·	·	·
CC(C)(C)N(Cc1ccccc1)C(=O)c1ccc(Cl)cc1[N+](=O)[O-]	1.4	0.736	-5.3	-3.6%	2.7	i	-5.2	-6.4	-0.5
COc1ccc(OC)c2c1sc(=NC(=O)C1CCCCC1)n2C	1.7	0.702	-9.3	-75.1%	-18.4	i	3.8	0.4	-6.5
CCOC(=O)c1c(NC(=O)COC(=O)c2ccccn2)sc(C)c1C	2.6	0.715	·	-17.1%	2.3	i	4.0	8.3	-0.2
COc1ccc(/C=C2\NC(=S)N(CC3CCCO3)C2=O)c(OC)c1C (centres undefined)	-0.9	0.685	9.4	0.7%	·	·	·	·	·
CCOc1ccc2c(c1)/C(=C(\C(Cl)=C(Cl)Cl)[N+](=O)[O-])N2	9.3	0.716	-20.1	4.8%	-1.3	i	0.9	0.6	-1.9
O=C1CC(N2CCCN(C3CC(=O)N(c4ccc(F)cc4)C3=O)CC2)C(=O)N1c1ccc(F)cc1 (centres undefined)	-0.1	0.748	3.3	15.2%	·	·	·	·	·
Cc1[nH]nc(N)c1-c1ccccc1	2.4	0.694	-3.9	-0.5%	-2.0	i	9.2	9.3	1.2
O=C(C[C@@H]1C=C[C@H](NC(=O)c2ccccc2)[C@@H](CO)O1)NCc1ccc(Oc2ccccc2)cc1	·	·	·	·	-0.2	i	2.0	7.1	-1.8
COc1ccc(OCC(=O)NC(=S)Nc2ccccc2F)cc1	-5.2	0.693	-1.5	2.2%	-3.6	i	6.9	11.2	1.5
O=[N+]([O-])c1ccc(/C=[N+](\[O-])[C@@H]2CCCC[C@@H]2/[N+]([O-])=C/c2ccc([N+](=O)[O-])o2)o1	-2.3	0.631	-76.4	11.8%	1.4	i	0.7	-7.0	2.8
COC(=O)C1=C(C)NC(C)=C(C(=O)OC)C1C(=O)OCC(=O)N1c2ccccc2CC1C (centres undefined)	2.1&-4.0	0.7&0.71	-1.7	-2.4%&11.7%	-1.2	i	-12.3*	-21.3*	4.4*
Cc1cc(C)c2c(n1)SCC(=O)N2CC(=O)Nc1ccc(Br)c(C)c1	-0.6	0.675	-2.3	·	0.3	i	-2.8	-25.1	-2.7
COC(=O)C1CCN(Cc2c(C(=O)N3C[C@@H](C)O[C@@H](C)C3)nc3ccc(Cl)cn23)CC1	0.9	0.657	0.9	9.8%	0.0	i	17.2	21.5	0.2
COc1ccccc1C(=O)NC(C)c1ccc(-n2ccnc2)cc1 (centres undefined)	1.1	0.74	-7.5	-11.2%	-5.6	i	7.3	4.2	-1.2
CC1(C)CC2CC(C)(CN2C(=O)COC(=O)c2ccc(Cl)cc2N)C1 (centres undefined)	0.7	0.732	-5.9	-0.6%	·	·	·	·	·
CC1Oc2ccccc2C=C1/C=N/NC(=O)c1ccccc1O (centres undefined)	18.2	·	-1.8	17.9%	·	·	·	·	·
CC(=O)N/N=C\c1cccc(OC/C=C/c2ccccc2)c1	1.3	·	-10.5	3.9%	0.1	i	7.8	10.7	1.4
O=C(CN1C(=O)c2cccc3cccc(c23)C1=O)N1CCCCCC1	-0.7	0.714	5.9	6.1%	-11.5	i	7.7	-2.4	-6.6
Cn1nc(C(F)(F)F)c(-c2cccc(C(F)(F)F)c2)c1NC(=O)c1cccnc1	0.1	0.659	·	8.3%	1.0	i	-29.1	-50.0	-1.1
O=C(COC(=O)c1cccs1)NCC1CCCO1 (centres undefined)	-1.3	0.732	-15.5	5.0%	·	·	·	·	·
COc1ccc(-c2ccc3c(c2)S(=O)(=O)c2cccc(C(=O)NCc4cccc(OC(F)(F)F)c4)c2C3=O)cc1OC	36.4	0.675	-1.5	·	·	·	·	·	·
COc1cccc(-c2ncc3ccccc3c2COC(=O)c2ccc(C(F)(F)F)cc2)c1	-0.1	0.71	-4.2	·	-2.7	i	-3.0	4.5	-6.1
C[C@H]1CN([C@@H](C)CO)C(=O)Cc2cc(NC(=O)Nc3ccc4c(c3)OCO4)ccc2O[C@H]1CN(C)Cc1ccc(-c2ccccc2)cc1	·	·	·	·	1.3	i	0.1	-4.9	-0.5
O=C1COc2ccc(C(=O)COC(=O)c3cnc(Cl)c(Cl)c3)cc2N1	-0.6	0.666	-3.8	-22.9%	1.1	i	19.9	10.0	1.4
COC(=O)CC1C(=O)NCCN1C(=O)c1ccc(Cl)cc1 (centres undefined)	-2.4	0.659	-6.3	·	-0.7	i	9.0	4.8	0.5
CC(Sc1ncc(C(F)(F)F)cc1Cl)C(=O)NCC1CCCO1 (centres undefined)	4.0	0.682	-1.4	-4.2%	0.2	i	-4.9	-6.7	1.9
CCOC(=O)N1CCN(c2nc(N(c3ccccc3)c3ccccc3)nc(-n3ccnc3)n2)CC1	·	0.692	-6.8	3.6%	13.7	i	4.7	2.8	-2.1
CCc1ccc(-c2cn3nc(C)c(C)nc3n2)cc1	2.9	0.709	0.8	11.4%	·	·	·	·	·
CCOC(=O)c1[nH]c(CSc2nnnn2-c2ccccc2C)c(C(=O)OCC)c1C	15.3	0.688	-7.4	13.9%	·	·	·	·	·
COC(=O)C1=CN(c2ccc(F)cc2)C=C(C(=O)OC)C1c1cccc(Br)c1	1.0	0.691	-19.8	-0.3%	-13.4	i	7.7	2.1	-0.3
O=C(NC1CCCC1)C(=O)N(Cc1cccnc1)C(C(=O)NC1CCCC1)c1ccco1 (centres undefined)	0.2	0.668	-2.2	·	0.1	i	6.2	11.2	0.3
CCOc1ccc(C2=C(C=C(C#N)C#N)C(c3ccccc3)c3ccccc3O2)cc1 (centres undefined)	-2.0	0.658	-35.9	?	10.1	i	6.1	1.5	-1.0
CCOc1cc(CNCc2ccncc2)cc(Br)c1OCc1ccc(F)cc1	1.1	0.637	-3.8	10.7%	·	·	·	·	·
C[C@H](CO)N1C[C@H](C)[C@@H](CN(C)C(=O)c2cccnc2)Oc2cc(C3=CCCC3)ccc2S1(=O)=O	·	·	·	·	-3.3	i	0.5	3.1	-1.7
COc1ccc(CNc2cc(C)ccn2)c(O)c1	-1.1	0.643	·	·	0.5	i	2.7	2.4	-0.9
CCOc1ccccc1NC(=O)CSc1nc2ccccc2nc1N1CCCC1	1.0	0.74	-5.0	·	-0.7	i	1.2	1.7	-6.8
O=C(COC(=O)Cc1cccs1)NCc1ccc(F)cc1	-0.6	0.677	1.0	·	-1.0	i	4.7	12.1	0.9
Cc1ccsc1/C=N/Nc1cccc(C(=O)O)c1	4.5	·	59.7	-10.1%	0.7	i	5.0	-5.5	-5.6
Cc1cccc(C)c1NC(=O)CS(=O)CC(=O)NCCCc1ccccc1 (centres undefined)	-1.9	0.669	-4.6	5.6%	·	·	9.0	7.4	5.6
O=C(NCCc1ccccc1)c1noc2c1CCCCC2	-1.4	0.671	-11.3	4.4%	·	·	·	·	·
Cc1ccc(C(=O)/C=C\Nc2ccc(C)c(C)c2)cc1	2.6	·	-11.0	2.3%	·	·	·	·	·
CC(=O)c1cc(F)c(N2CCOCC2)cc1C	-2.7	0.69	-5.1	24.2%	·	·	·	·	·
Cn1c(-c2ccncc2)nc2ccccc21	0.2	0.685	-3.7	·	-1.2	i	17.3	4.5	-0.3
COCCn1c(SCC(=O)Nc2ccc(OC)c(S(N)(=O)=O)c2)nc2ccccc21	-0.8	0.689	-26.4	·	0.6	i	3.9	1.5	-1.2
COC(=O)c1ccccc1Sc1snnc1C	-2.3	0.674	-6.6	-8.2%	-0.2	i	6.5	0.3	-0.5
CCOC(=O)c1ccc2c(c1)N(C)C(=O)c1ccccc1S2	-0.8	0.67	-4.8	-1.8%	·	·	-16.2	-23.4	-19.2
C[C@@H]1CN([C@H](C)CO)C(=O)c2cc(NC(=O)Nc3ccccc3)ccc2O[C@H]1CN(C)C(=O)NC1CCCCC1	·	·	·	·	-2.4	i	2.5	8.7	0.3
CCCC(=O)Nc1ccc2c(c1)C(=O)N(C)[C@H]1CC[C@@H](CC(=O)NCCc3ccncc3)O[C@@H]1CO2	·	·	·	·	-1.4	i	2.4	8.4	1.5
CC(C)(C)n1c(O)c2ccc(C(=O)N=NC(=O)c3ccccc3)cc2c1O	3.1	0.707	-10.7	·	-1.2	i	-1.1	4.8	-3.8
CCOC(=O)C1=C(N)Oc2c(c(=O)[nH]c3ccccc23)C1c1ccccc1 (centres undefined)	-0.4	0.747	3.0	0.6%	-14.8	·	·	·	·
CCOC(=O)C1CCCN(C(=O)c2ccc3c(=O)n(CCOC)c(=S)[nH]c3c2)C1 (centres undefined)	1.7	0.685	·	0.1%	·	·	·	·	·
Cc1noc(C)c1NC(=O)N(C)C[C@H]1Oc2ncc(C#CCC(C)C)cc2C(=O)N([C@@H](C)CO)C[C@H]1C	·	·	·	·	0.9	i	4.8	9.5	2.6
COc1ccccc1N1CCN(C(=O)/C=C/c2cccc([N+](=O)[O-])c2)CC1	2.9	0.676	0.4	·	·	i	5.1	13.8	4.8

(next part)
SMILES	HNF4A DNA FP	Ecoli growth	ALR H2O2 inh	Vif A3G	AF4-AF9 inh	FGF22 binding	rRNA inh HTS	rRNA inh HTS OD600	rRNA inh HTS RFP
O=c1[nH]n(-c2ccc(F)cc2)c2ncccc12	-3.5	0.644	73.5	5.1%	·	·	·	·	·
O=C(CC1NC2CCCCC2NC1=O)Nc1ccc2c(c1)OCO2 (centres undefined)	0.2	0.692	-5.3	6.8%	·	·	·	·	·
O=c1[nH]c(=S)[nH]c2c1C(c1ccc(Cl)cc1)OC(CCc1ccccc1)C2 (centres undefined)	6.5	·	·	·	1.1	i	·	·	·
CCN(C[C@H]1N[C@@](Cc2ccccc2)(C(=O)OC)[C@H]2C(=O)N(Cc3ccccc3)C(=O)[C@@H]12)C(=O)C1CCCCC1	-1.1	0.722	·	-8.4%	-1.3	i	-3.3	1.4	-6.6
COC(=O)c1cccc2c([N+](=O)[O-])c(NC(C)=O)cc(C(=O)OC)c12	·	·	·	·	3.3	i	-0.5	-10.1	0.2
CCN(CC)CCNC(=O)/C(=N\O)c1ccccn1	-1.0	·	·	31.6%	-0.9	i	5.0	5.8	2.1
